Rango-impB inh: prevents formation of the Rango-importin beta complex; Q14974; Rango CFP/YFP FRET sensor + importin beta, 45 min; Potency, µM (series often up to 92.2 µM), for inactives: at the highest dose inhibition of complex formation; 0.031% of 340,000 active; active = rising FRET ratio curve, often small or poorly fitted; inconclusive = mostly compound fluorescence or quenching in the first reads; inactive = flat curves in all reads;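 note: potency is the fitted concentration of half-maximal effect; 0% = DMSO wells and 100% = buffer wells lacking importin beta; nearly all actives have a fitted effect of over 15% in size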
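FRET biosensor Rango (snurportin 1 IBB between N-terminal EYFP and C-terminal Cerulean), 50 nM in PBS/1 mM DTT/0.02% Tween-20/0.1% BSA, preincubated 5 min RT with compound; 0.125 microM importin beta added, 45 min RT, CFP/YFP FRET ratio read.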
miR-21 FLuc: raises the signal of a miR-21 reporter; HeLa miR-21 FLuc reporter, luciferase, 48 h; 340,000 tested, under 10 active; Potency, µM (highest dose often 38.3 µM), inactives show top-dose reporter change, positive = more light; active = well fitted rising curve with a large enough effect; inconclusive = small, poorly fitted or top-dose-only effect; inactive = no such curve, though single readings can be large or run the other way;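 note: % of control where 0% means no effect; miR-21 action dims this reporter so a rising signal means less miR-21 action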
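HeLa cells stably expressing CMV-driven firefly luciferase with a downstream miR-21 binding sequence, endogenously expressing miR-21, were treated with titrations (up to about 40uM final) for 48 hours at 37 degree Celsius. Luciferase luminescence was read after lysis.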
GLA inh pH 4.5: inhibitors of human alpha-galactosidase A at pH 4.5; activity change, negative = inhibition, % at 105 µM; purified enzyme, 4-MU-alpha-Gal fluorescence, pH 4.5; 230,000 tested, under 10 active; P06280; AID 1467; inconclusive = small, poorly fitted or top-dose-only inhibition, or a rising curve; inactive = flat fitted curve, though single readings scatter; no compound was filed as active;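 note: 0% = full activity with enzyme and -100% = basal without enzyme; dose as in the result columns while the protocol names 77 µM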
Target sequence (P06280 whole entry, looked up): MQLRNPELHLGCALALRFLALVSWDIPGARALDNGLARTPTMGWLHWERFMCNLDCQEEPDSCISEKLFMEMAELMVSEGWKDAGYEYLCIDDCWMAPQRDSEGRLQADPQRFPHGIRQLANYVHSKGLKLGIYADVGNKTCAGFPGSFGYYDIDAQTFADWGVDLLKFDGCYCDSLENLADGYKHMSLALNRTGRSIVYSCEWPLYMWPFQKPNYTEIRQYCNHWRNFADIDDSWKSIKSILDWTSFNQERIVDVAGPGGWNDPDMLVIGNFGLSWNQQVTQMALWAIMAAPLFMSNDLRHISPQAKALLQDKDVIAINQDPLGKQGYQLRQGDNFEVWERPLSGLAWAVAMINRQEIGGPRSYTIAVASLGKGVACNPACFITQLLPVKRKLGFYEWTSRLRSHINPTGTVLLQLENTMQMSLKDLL
Rango release inh: inhibition of RanGTP-driven Rango-importin beta dissociation; O95149+P62826; Biochemical FRET Rango-importin beta, RanGTP-induced dissociation; Potency, µM (highest dose often 46.1 µM), inactives show at the top dose activity change, negative = inhibition; 0.071% of 340,000 active; active means falling FRET ratio curve, often poorly fitted, with flat reads before Ran was added; inconclusive means other falling curves, or compound fluorescence or quenching; inactive means flat or rising ratio curve;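 note: potency is the fitted concentration of half-maximal effect; % of control where 0% means no effect; nearly all actives have a fitted effect of over 45% in size; -100% = wells without RanGTP and RCC1; the record marks most hits as doubtful in a second field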
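Recombinant Rango FRET biosensor (EYFP–snurportin 1 IBB–cerulean CFP10) at 0.1 uM premixed with 0.25 uM importin beta in PBS, 1 mM DTT, 0.02% Tween-20, 0.1% BSA. Compound added 5 min; RanGTP-RCC1 (0.6 uM Ran, 2 mM GTP, 0.2 uM RCC1) then triggers release, read at 45 min.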
* marks the source's active call; other numbers are inactive results; u = inconclusive; x = no result given. A portion of the library; rates above refer to the full screens.

#	SMILES	GLA inh pH 4.5	Rango release inh
1	CCN1C(=O)[C@H]2[C@@H](c3ccccc3)N3C(=O)N(c4cccc(F)c4)C(=O)[C@@]3(CC(C)C)[C@H]2C1=O	x	2.0%
2	N#Cc1ccsc1NC(=O)C1CCN(C(=O)c2ccc(Cl)cc2)CC1	x	0.9%
3	Cc1ccc(NC(=O)COC(=O)CNC(=O)c2cccs2)cc1S(=O)(=O)N1CCOCC1	x	0.9%
4	Cc1noc(C)c1COc1ccccc1C(=O)N1CCN(S(=O)(=O)c2ccc(F)c(F)c2)CC1	x	-13.9%
5	O=C(/C=C/c1cccc([N+](=O)[O-])c1)NCc1ccco1	6.3	-2.9%
6	Cc1ccc(NCC(=O)N/N=C/c2cc3ccccc3nc2Cl)cc1	-0.3	13.4%
7	CCc1cc2cc(C)ccc2nc1SCC(=O)NNC(=O)c1ccco1	x	-12.9%
8	CC(OC(=O)CCCN=C1NS(=O)(=O)c2ccccc21)C(=O)Nc1ccccc1[N+](=O)[O-] (centres undefined)	x	-0.2%
9	COc1ccc(C(=O)Nc2cccc3c2CCCC3)cc1OC	x	-3.2%
10	CC(=O)N/N=C/c1cc(C(C)(C)C)cc(/C=N/NC(C)=O)c1O	-6.3	u

#	miR-21 FLuc	Rango-impB inh
1	2.4%	3.6%
2	x	-6.4%
3	x	-1.1%
4	x	1.6%
5	-9.0%	-3.1%
6	-11.0%	-3.9%
7	-2.5%	-6.0%
8	x	5.0%
9	-3.9%	0.3%
10	20.0%	u

The list continues.
#	SMILES	GLA inh pH 4.5	Rango release inh
11	COc1cc2c(cc1OC)CC(C(=O)NCc1ccccc1)NC2 (centres undefined)	x	-11.3%
12	COc1ccccc1Nc1nnc(SCC(=O)N2CCCC2)s1	-10.2	0.4%
13	COC(=O)c1[nH]c2cc(C)ccc2c1NC(=O)CN1CCCc2ccccc21	-3.8	-20.5%
14	CCOC(=O)C1(C(=O)OCC)NC(=O)CC1C(C)C (centres undefined)	x	-11.3%
15	COC(=O)CSc1nnc(CNC(=O)c2ccc(S(=O)(=O)N3CCOCC3)cc2)n1C	7.8	2.6%
16	Cc1ccc(C(=O)Nc2ccc3c(c2)OCCO3)cc1S(=O)(=O)N1CCOCC1	x	1.2%
17	CSc1cccc(NC(=S)NC(=O)c2cccnc2)c1	x	-10.4%
18	Cc1ccc(C(C)C)c(OCC(=O)NNC2=CC(=O)CC(C)(C)C2)c1	0.9	-5.6%
19	COc1ccc(NC(=O)CSc2nc3[nH]ncc3c(=O)[nH]2)c(OC)c1	x	-13.7%
20	COC(=O)C1=C(C)Nc2nnnn2C1c1cccs1 (centres undefined)	2.0	-13.0%

#	miR-21 FLuc	Rango-impB inh
11	-2.6%	u
12	-34.5%	-1.3%
13	-42.2%	-0.8%
14	x	-3.4%
15	1.0%	0.9%
16	x	0.2%
17	1.8%	0.7%
18	5.3%	-0.8%
19	x	u
20	-5.6%	3.5%

Five entries already listed, sorted by molecular weight, highest first.
#	SMILES	GLA inh pH 4.5	Rango release inh
16	Cc1ccc(C(=O)Nc2ccc3c(c2)OCCO3)cc1S(=O)(=O)N1CCOCC1	x	1.2%
19	COc1ccc(NC(=O)CSc2nc3[nH]ncc3c(=O)[nH]2)c(OC)c1	x	-13.7%
12	COc1ccccc1Nc1nnc(SCC(=O)N2CCCC2)s1	-10.2	0.4%
17	CSc1cccc(NC(=S)NC(=O)c2cccnc2)c1	x	-10.4%
20	COC(=O)C1=C(C)Nc2nnnn2C1c1cccs1 (centres undefined)	2.0	-13.0%

#	miR-21 FLuc	Rango-impB inh
16	x	0.2%
19	x	u
12	-34.5%	-1.3%
17	1.8%	0.7%
20	-5.6%	3.5%

Remaining list, next part.
#	SMILES	GLA inh pH 4.5	Rango release inh
21	Cc1ccc(NC(=O)CNc2ccccc2N2CCCC2=O)cc1S(=O)(=O)N1CCCCC1	x	-7.5%
22	Cc1cccc(-n2ccnc2CN2CCN(C3CCCC3)C(CCO)C2)c1 (centres undefined)	5.7	3.2%
23	COc1ccc(C)cc1S(=O)(=O)N1CCC(C(=O)NCCc2ccccc2)CC1	0.1	-1.8%
24	CN=C1N(C)C[C@@H]2[C@@H]3C(=O)N(C)C(=O)[C@@H]3[C@](Cc3ccccc3)(C(=O)OC)N12	x	0.0%
25	COC(=O)c1cc(NC(=O)COC(=O)CN2C(=O)C3CC=CCC3C2=O)cc(C(=O)OC)c1 (centres undefined)	x	-26.5%
26	CC(=O)N1CCN(C(=O)c2ccccc2NS(=O)(=O)c2ccc(F)cc2)CC1	x	-13.6%
27	Cn1nc(C(=O)NC2CCCN(Cc3ccccc3F)C2)c2ccccc2c1=O (centres undefined)	x	-11.3%
28	Cc1ccc(-c2nc3ccccc3c(=O)n2NC(=O)COc2ccccc2)cc1	-8.6	-9.4%
29	CC(=O)C1=C(O)C(=O)N(c2ccc(S(N)(=O)=O)cc2)C1c1cccc([N+](=O)[O-])c1 (centres undefined)	-3.0	u
30	CCCC1Cc2c(sc(N)c2C#N)CO1 (centres undefined)	3.5	1.3%

#	miR-21 FLuc	Rango-impB inh
21	x	-1.4%
22	-2.8%	-1.7%
23	-13.6%	-0.3%
24	x	0.3%
25	x	2.7%
26	x	-2.1%
27	19.3%	5.6%
28	1.1%	-1.3%
29	-0.6%	-3.6%
30	-14.9%	-0.8%

Whole records, looked up by structure. Order of values: GLA inh pH 4.5	Rango release inh	miR-21 FLuc	Rango-impB inh
CSc1cccc(NC(=S)NC(=O)c2cccnc2)c1 across the screens: x	-10.4%	1.8%	0.7%
CC(=O)N/N=C/c1cc(C(C)(C)C)cc(/C=N/NC(C)=O)c1O across the screens: -6.3	u	20.0%	u

Next section
#	SMILES	GLA inh pH 4.5	Rango release inh
31	O=c1cc(-c2ccc(O)cc2)oc2c1ccc1ccccc12	x	u
32	CCc1nc2c(oc3ccccc32)c(=O)[nH]1	-6.8	-4.2%
33	O=C(c1cccnc1)N1CCN(c2ccc([N+](=O)[O-])cc2Cl)CC1	4.1	-0.4%
34	CS(=O)(=O)N(CC(=O)NCc1ccncc1)c1ccc(Cl)c(Cl)c1	-10.7	1.0%
35	Cc1ccccc1CN1[C@@H]2c3ccccc3C[C@@H]2OCCS1(=O)=O	x	-20.1%
36	CCc1ccc(NC(=O)CN2CCC(C(=O)c3ccc(OC)cc3)CC2)cc1	x	1.7%
37	CCC/C(C#Cc1ccc(N(C)C)cc1)=C1/c2ccccc2C(=O)N1c1ccccc1	x	u
38	Cc1ccc(NC(=O)CN(C)C(=O)COC(=O)c2ccc(NC(=O)CC#N)cc2)cc1	x	-9.5%
39	CN(C(=O)c1cc2ccccc2o1)c1c(N)n(Cc2ccccc2)c(=O)[nH]c1=O	x	22.6%
40	NS(=O)(=O)c1cccc(NC(=O)Cn2cc(C(F)(F)F)cc(Cl)c2=O)c1	-2.1	6.3%

#	miR-21 FLuc	Rango-impB inh
31	x	u
32	-13.2%	-1.0%
33	-6.3%	-1.3%
34	-1.1%	-1.8%
35	1.6%	0.8%
36	-4.0%	-0.5%
37	x	u
38	x	-0.2%
39	x	0.7%
40	-1.2%	-1.8%

Following part.
#	SMILES	GLA inh pH 4.5	Rango release inh
41	CCC(C)NS(=O)(=O)c1ccc(S(=O)(=O)N(CC(=O)Nc2ccccc2)Cc2ccco2)cc1 (centres undefined)	-2.0	-4.9%
42	CC(C)c1nnc(NC(=O)CCC(=O)NCc2cccs2)s1	3.1	25.2%
43	COc1ccc(-c2cc(C(=O)N3CCN(S(=O)(=O)c4ccccc4)CC3)[nH]n2)cc1	x	-13.3%
44	CCOc1ccc(N2CC(NC(=O)c3cccc4ccccc34)CC2=O)cc1 (centres undefined)	x	-20.3%
45	CC(C)C(=O)Nc1ccc(C(=O)Nc2nnc(C(C)(C)C)s2)cc1	-3.0	-2.0%
46	CN=C1c2cc3cc(OC)ccc3n2CCN1Cc1ccccc1	-2.7	-8.1%
47	Cc1cccc(OCCCCCn2ccnc2)c1C	7.5	-6.6%
48	NS(=O)(=O)c1ccc(NC(=S)NC(=O)/C=C/c2ccco2)cc1	-8.2	8.3%
49	O=C(COC(=O)c1ccc(O)cc1)NC1CCCCCC1	x	3.3%
50	FC(F)(F)c1cccc(CNc2ncccc2-c2nc3cc(Cl)ccc3o2)c1	6.0	12.6%

#	miR-21 FLuc	Rango-impB inh
41	11.6%	-1.1%
42	-2.4%	0.9%
43	1.7%	-1.5%
44	x	3.9%
45	0.4%	-2.1%
46	22.8%	-0.1%
47	9.6%	-1.0%
48	-4.9%	-1.2%
49	x	0.4%
50	-8.0%	u

(further entries)
#	SMILES	GLA inh pH 4.5	Rango release inh
51	CC(=O)Nc1ccc(C(=O)OCC(=O)N2CCC(Cc3ccccc3)CC2)cc1	x	-12.8%
52	Cn1c(=O)c2c(nc(N3CCN(Cc4ccccc4)CC3)n2CCCc2ccccc2)n(C)c1=O	-4.8	-9.2%
53	CCOc1ccc(NC(=O)C2CCCN2S(=O)(=O)c2ccc(OCC)cc2)cc1 (centres undefined)	x	0.2%
54	CCCC(=O)Nc1ccc(-c2csc(-c3cccnc3)n2)cc1	x	4.5%
55	CCC1CCCCN1C(=O)CSc1nnc(-c2cccc(Cl)c2)o1 (centres undefined)	3.2	-8.8%
56	O=C1Nc2ccccc2/C1=N\N=C\c1ccc(O)c(O)c1	0.2	u
57	Cc1ccc(S(=O)(=O)N2CCC[C@H]2C(=O)NC2=NCCS2)cc1	x	0.0%
58	CCOC(=O)C1(Cc2ccc(OC)cc2)CCN(C(=O)CN2CCOC2=O)CC1	2.4	15.6%
59	Cc1nc2ccc(NC(=O)c3ccc(F)c(S(=O)(=O)N4CCOCC4)c3)cc2s1	-3.8	2.8%
60	O=S(=O)(c1cccc(-c2n[nH]c(=S)o2)c1)N1CCOCC1	-3.4	-3.4%

#	miR-21 FLuc	Rango-impB inh
51	x	-2.6%
52	-5.2%	-1.7%
53	-3.5%	-1.2%
54	-21.1%	-1.5%
55	-30.7%	-0.6%
56	-24.7%	-1.2%
57	x	-1.2%
58	-13.9%	-0.3%
59	26.6%	-2.2%
60	-1.7%	1.3%

Following part:
#	SMILES	GLA inh pH 4.5	Rango release inh
61	CC1CCCCC1NC(=O)CCCCCn1c(=S)[nH]c2ccsc2c1=O (centres undefined)	x	-27.1%
62	CN(C)CCNC(=O)CNC(=S)N(Cc1ccccc1)Cc1cccnc1	2.5	3.9%
63	CCc1ccc(C(=O)N/N=C(\C)c2cccnc2)s1	x	-3.4%
64	O=C(Nc1ccccc1)c1ccc(-c2ccccc2Cl)o1	-8.9	0.3%
65	Cc1cc[n+](-c2nc3ccccc3nc2C(=C=[N-])C#N)cc1	-5.6	-9.5%
66	COc1cc(SC)ccc1C(=O)OC(C)C(=O)Nc1ccc(NC(C)=O)cc1 (centres undefined)	x	-5.0%
67	CN(C)CCCNCC(=O)c1c(-c2ccccc2)n(C)c2ccccc12	x	-9.6%
68	C/C(=N/Nc1nc(C)c(C)s1)c1cccc([N+](=O)[O-])c1	x	-7.5%
69	O=C1CCN(CCc2ccccc2)CCN1[C@H](CSc1ccccc1)Cc1ccccc1	x	-21.4%
70	CC1=C(C(=O)Nc2cc(C(=O)NCCCOC(C)C)ccc2C)SCCO1	x	1.2%

#	miR-21 FLuc	Rango-impB inh
61	-4.9%	3.8%
62	-0.6%	0.3%
63	-8.5%	-2.9%
64	-68.7%	-3.7%
65	-4.0%	u
66	-0.2%	-1.6%
67	-11.9%	1.8%
68	-16.5%	2.1%
69	10.5%	u
70	0.2%	-3.7%

Next section:
#	SMILES	GLA inh pH 4.5	Rango release inh
71	Cc1ccc(S(=O)(=O)CC(=O)c2ccc3c(c2)OCCO3)cc1	-3.5	21.8%
72	CSc1ccccc1NC(=O)CN1CCN(c2ccccn2)CC1	x	-5.7%
73	CCOC(=O)CC(=O)CSc1ccc2nnc(-c3ccc(F)cc3)n2n1	-2.6	5.6%
74	CCOc1ccc(OCC(=O)OCC(=O)NCC2CCCO2)cc1 (centres undefined)	x	-19.4%

#	miR-21 FLuc	Rango-impB inh
71	-17.8%	-3.1%
72	-0.8%	-1.0%
73	6.4%	u
74	x	-2.7%
